High-throughput results: PubChem, several laboratories
BJeLR lethal: BJeLR cell viability loss. BJeLR (HRASV12) viability, CellTiter-Glo ATP luminescence, 48 h; reference of the scale not given here. inhibition, % (test concentration not listed). hit rate 0.17% among 300,000. AID 1554;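 active = replicate mean above 50%; inconclusive = above 50% but judged a plate artefact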;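 note: 50 nL library stock added to about 25 µL; numbers are from one replicate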
RN4220 kill: S. aureus RN4220 growth inhibition; OD600, 16 h; inhibition, % (no concentration beside the values); hit rate 0.33% among 330,000; AID 1259311;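 active = z-score of -3 or lower and OD600 up to 0.18 on both plates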;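 note: plate controls were untreated cells for no effect and reference antibiotic for full effect; stock transfer was 100 nL into about 80 µL; one replicate is shown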
Bead autofluor: flagged as autofluorescent in microsphere protease counterscreen; hit rate 3.1% among 360,000; compound autofluorescence counterscreen, microsphere flow cytometry; stronger effect = higher value; fluorescence intensity (test concentration not listed);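 active = at least 3 SD above the mean of all compounds, about 16000 in these data; inconclusive = too few beads counted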;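 note: 100 nL of 1 mM stock went into each well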
Mtb hypoxia rep: reduces hypoxia-regulated biosensor signal in M. tuberculosis. M. tuberculosis hypoxia-regulated fluorescent reporter, fluorescence. fluorescence inhibition, % (no concentration beside the values). hit rate 0.1% among 300,000. AID 1159583;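 active = 35 to 45% if threefold the growth effect, above 45% if 1.5-fold the growth effect; inactive = the rest, general growth blockers included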;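 note: wells of about 50 µL received 100 nL stock; 0% = vehicle wells and 100% = reference inhibitor wells; whole bacteria with a GFP reporter of the hypoxia response; strong numbers were not always called active; many hits fall short of the cut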
ugtP null kill: kills S. aureus RN4220 lacking UgtP | AID 1259309 | S. aureus RN4220 ugtP deletion, OD600 growth, 16 h; some inactives read as strong as hits | growth inhibition, % (concentration not given with the values) | hit rate 0.54% among 330,000;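 active = z-score under -3 and OD600 up to 0.15 on both plates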;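 note: plate controls were untreated wells for no effect and antibiotic for full effect; wells of about 80 µL received 100 nL stock; the first replicate is given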
PrP UTR inh: suppresses PrP 5' UTR mRNA reporter expression; hit rate 0.35% among 340,000; cell-based PrP 5' UTR mRNA reporter, plate reader; inhibition, % (test concentration not listed);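 active = every replicate at 50% or more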;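 note: 0 = median of the neutral control wells; tested in H4 reporter cells; numbers are from one replicate; inactives centre near -14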
Mtb hypoxia rep growth: second read-out of Mtb hypoxia rep, no call of its own (marks repeat the call); growth inhibition, %; measured here: M. tuberculosis growth (absorbance);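 0% = vehicle and 100% = reference antibiotic; read after six days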
* = called active by the depositor; ? = inconclusive; . = no result given.

SMILES	BJeLR lethal	RN4220 kill	Bead autofluor	Mtb hypoxia rep	Mtb hypoxia rep growth	ugtP null kill	PrP UTR inh
COc1ccc(C(=O)NCCCN=C2NS(=O)(=O)c3ccccc32)cc1	-1	-0.2	5458	-11	-2	0	-16
Cc1ccc(-n2nc3c(=O)n(CCCC(=O)NCc4cccc(F)c4)nc(C)c3c2C)cc1	-8	2.0	5820	1	6	0	7
CN(CCc1ccccc1)C(=O)c1cccc(NC(=O)Cc2cccc(NC(=O)C3CCN(C(=O)C4CC4)CC3)c2)c1	.	2.9	3856	5	11	11	-50
Cc1cc(C(=O)N(C)CC(=O)Nc2ccccc2C(F)(F)F)c(C)o1	0	1.6	10040	3	-5	-6	-24
CN(C)CCNC(=S)Nc1cccc(Cl)c1	2	-0.1	23002*	-7	-1	-5	-21
CN(CCO)c1nc2c(c(=O)n(Cc3ccc(Cl)cc3)c(=O)n2C)n1C	6	6.4	3921	6	-7	9	-21
CCN1C(=O)[C@@H]2[C@@H](c3ccc(-c4ccc(C(C)=O)cc4)c(OC)c3)N3CCCC[C@@]3(C(=O)OC)[C@@H]2C1=O	-5	.	4342	.	.	.	-12
O=C(NNC(=S)NC1CCCCC1)c1ccccc1O	4	3.7	3983	15	2	6	-13
CCC(=O)c1cn(Cc2ccc(C#N)cc2)c2ccccc12	-2	2.3	3003	8	11	-10	-6
N#CC1=C(N)Nc2nc3ccccc3n2C1c1ccc(Cl)cc1 (centres undefined)	10	6.6	2037	-3	-1	-1	-7
Cc1ccccc1OCc1nc2ccccc2c(=O)n1N=Cc1ccco1	.	-10	.	6	8	-8	.
C=CCOC(=O)C1=C[C@H](C(C)(C)C)[C@@H](CCCO)[C@H](OCC)O1	8	.	3790	.	.	.	-16
COc1ccccc1NS(=O)(=O)c1cccc(C(=O)NCC(c2cccs2)N2CCOCC2)c1 (centres undefined)	.	3.9	3979	8	4	1	-14
CC(=O)c1ccc(N2CCN(CC(=O)Nc3ccc4c(c3)OCCO4)CC2)cc1	9	2.4	4540	-4	-3	10	-9
Cc1ccc(C)c(OCCC(=O)N(C)CC(=O)Nc2c(C)cccc2C)c1	.	3.3	2820	7	-1	6	-19
COC(=O)C1Cc2c([nH]c3ccccc23)C(C(C)C)N1 (centres undefined)	2	3.1	3453	7	7	4	-10
CC(=O)Nc1ccnc(-c2cccnc2)n1	9	1.8	9610	3	6	0	-23
O=C(c1cc2cc(Cl)ccc2[nH]1)N1CCc2ccccc2C1	3	1.4	5608	2	1	-8	3
CCOc1ncccc1C(=O)Nc1cc(S(=O)(=O)N2CCOCC2)ccc1N1CCCC1	3	2.4	4390	-12	-2	0	2
CCC1(C)CC2(CCCN(CCC(=O)c3ccccc3)C2)CCO1 (centres undefined)	-2	1.7	5100	22	8	23	-52
CC(=O)c1ccc(NC(=S)N2CCCC(C(F)(F)F)C2)cc1 (centres undefined)	0	11	3848	11	8	5	-34
CCC1SC(=Nc2cccc(C)c2)NC1=O (centres undefined)	0	3.3	3884	-1	15	0	-9
CC[n+]1c(/C=C/c2cc([N+](=O)[O-])ccc2O)ccc2ccccc21	3	.	2475	.	.	.	-23
Oc1cc2c(cc1CN1CCN(c3ccccc3F)CC1)OCO2	11	0.6	3721	1	-12	6	-21
CC1CCc2nc3sc4c(c3c(N)c2C1)CCCC4 (centres undefined)	3	6.4	2253	.	.	-8	-65
Cc1ccc(-c2c[n+]3c(n2-c2ccccc2)CCC3)cc1	9	-1.4	3099	-5	-9	4	-3
COc1cc(CC(=O)N/N=C/c2ccc([N+](=O)[O-])cc2)c([N+](=O)[O-])cc1OC	-9	.	1938	.	.	.	-8
COc1ccc(N2CCN(C(=O)CC34CC5CC(CC(C5)C3)C4)CC2)c([N+](=O)[O-])c1	-4	1.1	2350	7	8	-16	-10
COc1cccc(NC(=O)CN(C)C(=O)c2ccccc2-c2nc3ccccc3s2)c1	-9	.	6764	.	.	.	-2
Cc1cc(C(=O)COc2ncnc3sccc23)c(C)n1C	9	4.2	3218	9	8	3	-57
CCn1cc(C(=O)N2CCN(c3ccccn3)CC2)c(=O)c2cc(S(=O)(=O)N3CCC(C)CC3)ccc21	2	6.3	4488	-2	-2	8	-28
COc1cccc(CCc2nc3ccccc3c(=O)n2N)c1	0	2.0	6018	5	9	-1	-38
CCCN(C(=O)c1cc(S(=O)(=O)N(C)c2ccc(OCC)cc2)ccc1C)C1CCS(=O)(=O)C1 (centres undefined)	.	4.7	3650	2	1	5	-51
Cc1ccc(-c2cc(C(=O)Nc3cc(C)on3)c3ccccc3n2)cc1	-7	-3.0	2415	-4	-3	-5	-15
N#Cc1ccc(C23CC4(C2)[C@H](CN(P(=O)(c2ccccc2)c2ccccc2)[C@@H]4c2ccccc2)C3c2ccc(Cl)nc2)cc1 (some centres undefined)	3	.	4155	.	.	.	-9
O=[N+]([O-])c1cccc(-n2cccc2/C=N/Nc2nc(N3CCCCC3)nc(N3CCCCC3)n2)c1	4	.	2004	.	.	.	-12
CCCCOc1ccc(S(=O)(=O)Nc2cc(OC)ccc2OC)cc1	-1	9.6	5510	5	3	8	-27
CC(/C=C1\SC(=O)N(CC(=O)Nc2cccc(O)c2)C1=O)=C\c1ccccc1	-11	23	10699	1	-3	30	-33
CCCCCn1c(Sc2nc3ccccc3s2)nc2c1c(=O)[nH]c(=O)n2C	-3	2.1	10710	7	-6	-2	-15
COCCn1c(SCC(=O)NC(=O)NC(C)C)nc2ccccc21	1	-0.1	2173	.	.	4	-12
CCCCc1cc(=O)oc2c(CN(CC)CC)c(O)c(Cl)cc12	-11	11	3005	9	4	3	-26
CN(CCO)C(=O)c1cccc2c1-c1ccccc1C2=O	-5	-0.9	7145	-2	9	-2	-42
Cc1cc(-c2csc(NC(=O)c3ccc(C#N)cc3)n2)c(C)n1Cc1ccccc1	2	-5.6	2493	4	-8	-16	-57
CN(CC(=O)NCCN1CCN(Cc2ccccc2)CC1)S(=O)(=O)c1cccc2nsnc12	3	1.8	2989	21	9	5	-24
O=C(O)c1ccc(NC(=O)C2C3CCC(O3)C2C(=O)O)cc1 (centres undefined)	-3	-0.9	3758	2	7	0	-14
CNC(=S)N(CCc1c(C)[nH]c2ccccc12)Cc1ccco1	-3	4.4	4434	5	8	1	-33
CCOC(=O)c1cc2c(ccn2-c2ccc(F)cc2)n1CC(=O)N1CCN(C(=O)c2ccco2)CC1	3	-3.6	4133	.	.	2	-32
Cc1cc(C)nc(-n2nc(C)cc2NC(=O)c2ccc(S(=O)(=O)N3CCOCC3)cc2)n1	-5	4.1	.	1	1	9	.
O=C(N/C(=C/c1ccc2c(c1)OCO2)C(=O)N1CCOCC1)c1cccs1	2	-2.3	3735	-6	1	-10	-15
CC1=CC(C)(C)N(C(=O)CN2C(=O)c3ccccc3C2=O)c2ccccc21	-6	7.5	10456	6	1	11	-18
(more compounds)
SMILES	BJeLR lethal	RN4220 kill	Bead autofluor	Mtb hypoxia rep	Mtb hypoxia rep growth	ugtP null kill	PrP UTR inh
CCCn1c(C(=O)c2ccccc2OC)nc2ccccc21	23	3.9	2265	14	5	11	-11
C[C@@H](O)c1nc2ccccc2n1N	8	8.1	8396	11	7	0	-28
O=C(CCNC(=O)c1ccccc1Cl)NC1=NCCS1	1	0.5	4656	4	0	2	-11
Cc1cc(O)c(C)c(O)c1/C=N/NC(=O)c1cccnc1	11	.	3672	.	.	.	-12
Fc1ccc(C2=CSC3=NCCN23)cc1	.	-1.5	3330	11	3	2	-17
CN1CCC(N(C)CC(=O)Nc2cccc(Oc3ccccc3)c2)CC1	-2	1.2	9029	6	6	-5	-27
O=C(CSc1nnc(Nc2ccccc2)s1)NCc1ccco1	-2	-0.2	3250	.	.	-2	6
O=C(/C=C/c1ccc(-c2ccccc2)o1)c1ccccc1	1	12	2583	3	6	8	-56
CC1CC(C)CN(S(=O)(=O)c2ccc(C(=O)NCCCn3ccnc3)cc2)C1 (centres undefined)	109*	-0.8	?	-12	3	-6	2
CNc1nc2c(c(=O)n(C)c(=O)n2C)n1CCCc1ccccc1	3	2.9	4142	8	-1	13	-76
C=CCN1C(=O)C(O)(CC(=O)c2ccc(Cl)cc2)c2ccccc21 (centres undefined)	-3	-7.5	3124	-1	-4	-9	-7
CCC(COC)NC(=O)CCc1nnc(Cc2cccc(C(F)(F)F)c2)o1 (centres undefined)	1	2.5	4275	0	6	0	-32
CN(C)C(CNc1ncnc2sc3c(c12)CCCCC3)c1ccco1 (centres undefined)	9	6.4	4365	-7	11	3	-17
CCN(CC(=O)Nc1ccccc1OC)C(=O)CSCc1ccc(C)cc1	.	1.1	8871	-7	-1	-1	4
Cc1nc2ccccc2c(=O)n1C1CCCCCC1	-4	1.1	2504	.	.	0	-21
CN1C(=O)C2(C(C#N)=C(N)N(c3cc(Cl)cc(Cl)c3)C3=C2C(=O)CCC3)c2ccccc21 (centres undefined)	7	1.8	3112	5	6	-10	-19
CC(C)Oc1ccc(C(CC(=O)O)Cc2ccccc2)cc1 (centres undefined)	12	2.6	3857	-1	6	17	-20
Cn1nc(C#N)c(=O)[nH]c1=O	.	2.8	3912	16	6	2	-10
Nc1ccc2ncccc2c1N	.	9.9	2527	3	-8	18	-15
Cc1nc(CCNC(=O)Cc2ccc(Cl)cc2)cs1	-7	-10	6500	11	10	-3	-8
CC(C)CCCNc1nc(N2CCOCC2)nc(N2CCOCC2)n1	3	18	4090	7	10	12	-3
O=C(CSc1nc2ccccc2[nH]1)c1ccc(Cl)s1	2	-8.0	2866	17	11	-3	-25
NS(=O)(=O)OCCCc1ccc(C(F)(F)F)cc1	11	5.9	3014	9	13	2	-26
CC(C)(C)c1ccc(S(=O)(=O)NCCOCC(F)(F)C(F)F)cc1	-2	11	8308	19	-1	-2	0
CCN1CC2C3C(=O)N(Cc4ccccc4)C(=O)C3[C@](CC)(C1=O)N2C(=O)c1ccc(Br)cc1 (some centres undefined)	.	4.1	.	6	7	-7	.
O=c1c(-c2ccccc2)nnc2sc(COc3ccc(Br)cc3)nn12	2	3.8	2919	6	5	6	-3
CC(=O)c1ccccc1NC(=O)COc1ccc(N(C)S(=O)(=O)c2ccc(C)c(C)c2)cc1	.	-1.5	3827	-2	-3	-6	-5
CC(C)c1cc(C(=O)Nc2cccnc2)no1	12	3.7	10899	5	-2	3	-32
OCCCNc1nc(-c2ccc(Cl)cc2)nc2ccccc12	2	-7.2	3828	-3	5	-19	-5
COc1ccc(S(=O)(=O)N(C)C2CCN(C)CC2)cc1	8	-15	6094	13	11	-4	-27
CCNC(=S)NNC(=O)c1cccc(Br)c1	6	3.2	8728	-5	7	0	-31
COc1ccc2cc(C3=CCCC3(C)C(=O)O)ccc2c1 (centres undefined)	.	1.4	3670	13	12	1	-6
N#Cc1ccccc1NC(=O)CN1C(=O)NC2(CCCC2)C1=O	-3	2.8	5977	3	13	4	-62
C/C=C1\COC(C(=O)NCc2ccccc2)(C(F)(F)F)C=C1C=C(C)C (centres undefined)	14	.	4335	.	.	.	-20
CCN(CC)S(=O)(=O)c1ccc(N2CC(C(=O)NC3(C)CCS(=O)(=O)C3)CC2=O)cc1 (centres undefined)	.	-0.4	7646	2	4	6	-27
